MgrA DNA FP = S. aureus MgrA activity modulators, primary screen, biochemical, S. aureus Newman, fluorescence polarization; 0.13% of 84,000 active; AID 602314, 2012; MgrA-DNA binding; inhibition, %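 (about 10 µg/mL by stock and volumes)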;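 active = above 50% in either of two replicates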;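 note: 0% = protein plus DNA without compound and 100% = DNA alone without protein; higher means less MgrA bound to DNA so lower polarization; one replicate is shown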
S aureus helic = inhibitors of S. aureus replicative helicase, primary screen, biochemical, fluorescence unwinding readout. replicative DNA helicase (DnaC/DnaB), Staphylococcus aureus. purified S. aureus helicase, fluorescence unwinding assay; about half of the hits fall short of the stated cut. inhibition, %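 (tested at about 80 µM)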. 0.05% of 120,000 active. AID 485395, 2010;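 active = both duplicates at 50% or more, or one of them with a favoured structure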;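 note: 0% = mean of negative control wells and 100% = mean of positive control wells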
Active calls of the source: *; x = not tested or not shown.

mol	MgrA DNA FP	S aureus helic
COc1ccc(N2C(=O)CC(N3CCN(c4ccc(S(C)(=O)=O)cc4)CC3)C2=O)cc1 (stereo not given)	0.9	19
O=C1c2ccccc2C(=O)N1/N=C/c1ccc2c(c1)OCO2	x	-11
O=c1c(/C=N/O)coc2ccc(Cl)cc12	1.2	x
Cc1ccc(/C=N/O)o1	x	-2
Cc1sc2ncnc(SC(C)C(=O)NC3(C#N)CCCCC3)c2c1C (stereo not given)	x	8
C=CCn1cn[nH]c1=S	x	3
O=C(O)CN(Cc1ccccc1)S(=O)(=O)/C=C/c1ccccc1	x	-16
CSc1ccc(CN(C)CC(=O)NCc2ccccc2)cc1	x	-10
CCOC(=O)CC(=O)CSc1cc(C)c(Cl)cc1Cl	0.8	x
COc1ccccc1-c1cc(C(F)(F)F)nc(S(=O)(=O)CCCC(=O)N2CCOCC2)n1	x	-15
COC(=O)C(C(=O)OC)C(Nc1ccccc1)c1ccccc1 (stereo not given)	101*	21
Oc1ccccc1N1CCN(C(=S)NCCN2CCOCC2)CC1	x	-5
C=CCn1ccn(-c2cccc(Cl)c2)c(=O)c1=O	x	3
COc1ccc(C2CC(C(F)(F)F)n3nc(C(=O)NCCCN4CCOCC4)c(Cl)c3N2)cc1OC (stereo not given)	-1.2	x
CSc1nnnn1-c1ccc(I)cc1	-1.0	10
O=C(c1ccc(F)cc1)c1cc2ccc(O)cc2oc1=O	x	-30
COC(=O)c1ccc(-c2ccc(/C=C3/C(=O)N(C)C(=O)C(C#N)=C3C)o2)cc1	x	-32
CCOC(=O)Nc1ccc(C)cc1C	0.4	17
Cc1[nH]c2ccccc2c1C=C1C(=O)OC2(CCCC2)OC1=O	x	18
Cn1nc(CSc2ccc(Cl)cc2)c(CO)c1Cl	-0.7	x
O=C(O)c1ccccc1SC(C(=O)O)c1ccccc1 (stereo not given)	-5.8	x
COc1cc(CNc2nc3ccccc3[nH]2)cc(OC)c1OC	x	12
COc1ccc(C2CC(c3cccs3)=NN2C(=O)COC(=O)Cn2cnnn2)cc1OC (stereo not given)	x	9
O=C(NC(=S)NC1CC1)c1ccco1	x	-17
CCCCOc1ccc(C2=N/C(=C\c3cc(OC)c(OC)cc3OC)C(=O)O2)cc1	-1.1	x

Pulled one by one from above (three):
mol	MgrA DNA FP	S aureus helic
C=CCn1ccn(-c2cccc(Cl)c2)c(=O)c1=O	x	3
C=CCn1cn[nH]c1=S	x	3
COc1ccc(C2CC(C(F)(F)F)n3nc(C(=O)NCCCN4CCOCC4)c(Cl)c3N2)cc1OC (stereo not given)	-1.2	x

More structures.
mol	MgrA DNA FP	S aureus helic
OC(CNCc1ccc(Cl)cc1Cl)C(F)(F)F (stereo not given)	-0.3	x
Cc1ccc(S(=O)(=O)N2CCN(c3ccc([N+](=O)[O-])cn3)CC2)cc1	-2.7	x
Cc1c(C(=O)NCc2ccccc2Br)oc2ccccc12	-8.8	3
CCc1ccc(C(=O)NCCOC)s1	0.4	12
Cc1cc(C)nc(NS(=O)(=O)c2ccc(NC(=O)c3cc(S(=O)(=O)N4CCOCC4)ccc3C)cc2)n1	x	-17
COc1ccc(CN(Cc2cccs2)C(=O)Cc2c(C)noc2C)cc1OC	x	12
CCOC(=O)c1ccccc1OCc1cc(C2Nc3ccccc3C(=O)N2c2ccccc2)ccc1OC (stereo not given)	1.8	x
O=C(O)COCC(=O)Nc1ccccc1C(F)(F)F	-2.1	x
CCOC(=O)c1cnc2cc(C(F)(F)F)ccc2c1N1CCN(c2ccc(OC)cc2)CC1	x	21
N#Cc1c(Cl)cccc1N1CCC(C(N)=O)CC1	-1.9	x
CCC(Oc1cccc(C)c1)c1nc2ccccc2[nH]1 (stereo not given)	1.1	5
COc1ccc(Nc2c(-c3ccc(C)o3)nc3ncccn23)cc1OC	x	11
O=C(COC(=O)Cn1[nH]c(=O)c2ccccc2c1=O)Nc1ccccc1C(=O)NC1CC1	x	-3
CCOC(=O)c1c(C)oc(C)c1S(=O)(=O)Nc1ccccc1	x	-40
CC(O)CNCC(=O)Nc1ccccc1Br (stereo not given)	x	-12
O=C(Cc1noc2ccccc12)NCCc1ccc(Cl)cc1	-0.3	5
CC(=O)Nc1ccc(S(=O)(=O)NC(=O)CC(C)C)cc1	-1.3	4
CCOC(=O)c1cc2c(N)c(C(=O)OCC)sc2nc1C	2.2	x
c1ccc(-c2csc3ncnc(N4CCOCC4)c23)cc1	x	14
CCSCCOC(=O)C1=C(C)NC2=C(C(=O)CC(c3ccccc3)C2)C1c1ccc(OC(C)=O)c(OC)c1 (stereo not given)	-1.6	x
C=CCn1c(Sc2ccc(S(=O)(=O)N(CC)c3ccccc3)cn2)nnc1C1CCCCC1	x	13
Cc1ccc2oc(C(=O)N(C)c3ccccc3)c(C)c2c1	-6.9	6
CCc1nc2ccc(C(=O)O)cc2nc1CC	11	-8
O=C1NC(=Nc2ccccc2)S/C1=C/c1cc2c(cc1[N+](=O)[O-])OCO2	0.4	x
Cc1csc(=O)n1CC(=O)OCC(=O)NC1CCCCCCC1	x	16

A few values from the list.
Reading for c1ccc(-c2csc3ncnc(N4CCOCC4)c23)cc1 in S aureus helic: 14
Reading for N#Cc1c(Cl)cccc1N1CCC(C(N)=O)CC1 in MgrA DNA FP: -1.9

A run of entries taken from the entries so far:
mol	MgrA DNA FP	S aureus helic
CCOC(=O)c1cnc2cc(C(F)(F)F)ccc2c1N1CCN(c2ccc(OC)cc2)CC1	x	21
N#Cc1c(Cl)cccc1N1CCC(C(N)=O)CC1	-1.9	x

Next structures follow.
mol	MgrA DNA FP	S aureus helic
CN1CCCN(C(c2ccccc2)c2ccc(Cl)cc2)CC1 (stereo not given)	-2.8	x
N#Cc1ccccc1Cn1c(=O)n(CCCCC(=O)NCc2ccco2)c(=O)c2ccccc21	1.0	1
CC(=O)Nc1ccccc1C(=O)N1CCCCC1	1.7	-19
Cc1nn(-c2ccccc2)c(C)c1CN(C)C(=O)CCCn1c(=O)oc2ccccc21	x	14
N#Cc1cnc(Nc2nc3ccccc3s2)nc1-c1ccccc1	x	6
Cc1ccc(N2C(=O)c3ccc(C(=O)O)cc3C2=O)cc1	x	11
C=CCn1cc([N+](=O)[O-])nc1C	3.0	x
CC1CCCC(C)N1C(=O)CSc1ccccc1 (stereo not given)	-2.5	1
CCNc1nc(NCC)n2c(SCC(=O)c3cccs3)nnc2n1	0.9	-1
Cc1cccc(OCc2ccc(C(=O)NCCCN3CCOCC3)cc2)c1	-0.2	10
O=C1CC(c2ccccc2)S(=O)(=O)c2ccccc2N1 (stereo not given)	-1.4	x
COC(=O)c1ccc(COc2ccccc2C(=O)c2cnn(-c3ccccc3)c2)o1	x	-18
NNC(=O)COc1cccc(Oc2ccccc2)c1	x	17
N#CCCN(CC1CCCO1)S(=O)(=O)c1cccc2nsnc12 (stereo not given)	x	-24
CC(C)N(C(=O)Cn1nnc2ccccc21)c1ccccc1	-2.2	0
O=C(O)c1ccc(NC(CC(=O)c2ccc(Cl)cc2)c2ccccc2)cc1 (stereo not given)	1.2	6
CC(C)c1ccc(-n2cccc2/C=C2/C(=N)N3C=CSC3=NC2=O)cc1	2.3	-9
COC(=O)N1CCC(C(=O)O)CC1	-3.5	x
CCc1nc2nc(C)cc(NCCc3ccccc3)n2n1	2.9	-18
Cc1ccn(CCC(=O)Nc2ccc(F)cc2F)n1	x	1
Cc1nnc(NC2CCCC2)s1	3.0	-2
C=CCn1c(N)nc2c1c(=O)n(C)c(=O)n2C	-0.6	-5
CCn1cc(C(=O)NC2CCCc3ccccc32)c(=O)c2ccc(C)nc21 (stereo not given)	x	-8
CN(Cc1cc2ccccc2[nH]c1=O)S(C)(=O)=O	-2.0	-3
CCC(C)c1ccccc1NC(=O)c1ccc(Cl)nc1 (stereo not given)	x	0
C/C(=N\O)C(C)(C)Nc1cc(C(F)(F)F)cc(C(F)(F)F)c1	-0.8	x
O=C(O)C1C2C=CC(O2)C1C(=O)NC1CCCc2ccccc21 (stereo not given)	x	12
CN(Cn1nc2sc3ccccc3n2c1=S)C1CCCCC1	x	-13
CCc1ccc(C2=CC(=O)C=CC2=O)cc1	15	7
CC(C)CC(=O)Nc1ncnc2c1C(=O)CC(C)(C)C2	x	-12
Cc1ccc(S(=O)(=O)Cc2ccc(N)cc2)cc1	0.2	-13
CCCCn1c(=O)n(C)c(=O)c2c(=S)nc(-c3cccc(S(=O)(=O)N(C)C)c3)[nH]c21	x	-18
O=C(N=c1nc2ccccn2s1)c1ccccc1Cl	x	-3
CCN(CC)CN1C(=O)NC2(CCC(C)CC2)C1=O (stereo not given)	x	-9
Cc1cc(=O)n2[nH]c(N)nc2n1	-0.6	x
CC(C)(C)C(=O)CC1(O)C(=O)Nc2ccc(Br)cc21 (stereo not given)	0.2	x
O/N=C/C(=N/O)c1ccccc1	-1.3	-5
COc1ccc(-c2nc(N(C)c3ccccc3)[nH]c(=O)c2C#N)cc1	0.0	x
COc1ccc(C=NNC(=O)C(C)n2cnc3ccccc3c2=O)cc1 (stereo not given)	x	-19
C=CCN1C(=O)c2oc3ccccc3c(=O)c2C1c1ccccc1 (stereo not given)	-0.6	5
CCOC(=O)COc1ccc2cc(-c3nc4ccccc4[nH]3)c(=O)oc2c1	x	-1
O=C(O)c1ccccc1C(=O)NCC1COc2ccccc2O1 (stereo not given)	-0.9	12
CC(Sc1nc(NC(C)(C)C)nc(N(C)C)n1)C(=O)Nc1ccccc1 (stereo not given)	0.2	-5
CC(=O)NCc1ccc(C(=O)COC(=O)c2ccc(C#N)cc2)o1	x	-5
CCOC(=O)c1cc2sc(C)cc2n1CC	0.8	-14
CN(C)c1ccc(C2CC(=O)C3=C(C2)Nc2ccccc2NC3c2cccnc2)cc1 (stereo not given)	-0.8	-22
CCn1c(=NC(=O)C(C)C)sc2cc(Br)ccc21	x	13
O=C(NCO)c1ccccc1Cl	0.8	4
Cc1nc2ccccc2n1CC(=O)OCC(=O)c1cccc(Cl)c1	-1.2	11
O=C(c1cccnc1)N(c1ccc(F)cc1)c1nc2ccccc2s1	0.4	-11

Some of these compounds in order of their number in S aureus helic, descending:
mol	MgrA DNA FP	S aureus helic
CCn1c(=NC(=O)C(C)C)sc2cc(Br)ccc21	x	13
C=CCN1C(=O)c2oc3ccccc3c(=O)c2C1c1ccccc1 (stereo not given)	-0.6	5
CCN(CC)CN1C(=O)NC2(CCC(C)CC2)C1=O (stereo not given)	x	-9
Cc1ccc(S(=O)(=O)Cc2ccc(N)cc2)cc1	0.2	-13
CCCCn1c(=O)n(C)c(=O)c2c(=S)nc(-c3cccc(S(=O)(=O)N(C)C)c3)[nH]c21	x	-18

Next part
mol	MgrA DNA FP	S aureus helic
Cc1cc(C)c(O)c(C2(O)C(=O)c3ccccc3C2=O)c1	0.2	x
O=C(c1cc(-c2cccs2)on1)N1CCCC1	x	17
CCCCC(=O)Nc1c(C(=O)OCC)[nH]c2ccccc12	x	2
Nn1c(SCC(=O)N2CCCc3ccccc32)nncc1=O	x	3
CCCCC[C@H](O)/C=C/[C@@H]1[C@@H](C/C=C\CCCC(=O)O)[C@H](O)C[C@H]1O	-0.6	x
COc1cc(C(=O)Nc2ccc3nc(N4CCN(C)CC4)cc(C)c3c2)cc(OC)c1OC	-0.2	23
C=CC1OC2CCCCC2C2=CCCCC21 (stereo not given)	0.4	9
O=C(Nc1cccnc1Cl)c1noc2c1CCCCC2	x	-5
C=CCc1ccc2oc(C(=O)OCC)cc(=O)c2c1O	-3.8	x
O=C(O)COCC(=O)Nc1ccc2c(c1)OCCCO2	x	-22
C=C1SC(Nc2cc(C)cc(C)c2)=NC1(C)C	x	3
O=C(CSCc1cccc(Br)c1)Nc1ccc2ccccc2c1	5.2	19
CCSc1nnc(NC(=O)C23CC4CC(CC(C4)C2)C3)s1	x	18
COc1ccccc1C(=O)C(O)c1ccccc1OC (stereo not given)	x	5
O=C(O)C1CCC(CNCc2cccc(Br)c2)CC1 (stereo not given)	x	17
COc1ccc(OC)c(S(=O)(=O)NCC(c2ccc(N(C)C)cc2)N2CCc3ccccc32)c1 (stereo not given)	x	4
CC1CCC(NC(=O)COc2ccc3c(c2)OCO3)CC1 (stereo not given)	x	-2
C=CCc1c(C)nc2ccccc2c1Cl	0.4	8
COc1cc2c(cc1NC(=O)C(C)Sc1nnc(-c3cccs3)n1CC1CCCO1)oc1ccccc12 (stereo not given)	x	-14
NC(=O)CSCc1c(Cl)cccc1Cl	-0.7	-4
CS(=O)(=O)N1N=C(c2ccc(Br)cc2)CC1c1cc2ccccc2nc1Cl (stereo not given)	0.8	3
Cc1nn(S(=O)(=O)c2ccccc2)c(C)c1S(=O)(=O)N1CCCCC1	x	19
COC(NC(=O)c1ccccc1)(C(F)(F)F)C(F)(F)F	-5.5	x
O=C1CC(C(=O)NCc2ccccc2)N=C(N2CCOCC2)N1 (stereo not given)	-5.0	16

Bioassay records: PubChem BioAssay, ICCB-Longwood Screening Facility, Harvard Medical School

Some of the compounds tested (hit frequency here may not be typical).
